# D2 PAM: Beta-Arrestin HTS for Positive Allosteric Modulators of the Human D2 Dopamine Receptor: Potentiators; AID 624464, 2012; DiscoveRx D2 beta-arrestin cells, luminescence, 90 min; 100% = 57 uM dopamine signal; potentiation, % (test concentration not listed); actives 0.23% (n = 360,000); D(2) dopamine receptor (Homo sapiens), P14416; active = potentiation of 50% or more; inconclusive = 30% to 50%; inactive = 30% or less;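 further: compound concentration not given in the record; tested on top of an EC20 dose of dopamine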
# Target sequence (P14416 whole entry, looked up): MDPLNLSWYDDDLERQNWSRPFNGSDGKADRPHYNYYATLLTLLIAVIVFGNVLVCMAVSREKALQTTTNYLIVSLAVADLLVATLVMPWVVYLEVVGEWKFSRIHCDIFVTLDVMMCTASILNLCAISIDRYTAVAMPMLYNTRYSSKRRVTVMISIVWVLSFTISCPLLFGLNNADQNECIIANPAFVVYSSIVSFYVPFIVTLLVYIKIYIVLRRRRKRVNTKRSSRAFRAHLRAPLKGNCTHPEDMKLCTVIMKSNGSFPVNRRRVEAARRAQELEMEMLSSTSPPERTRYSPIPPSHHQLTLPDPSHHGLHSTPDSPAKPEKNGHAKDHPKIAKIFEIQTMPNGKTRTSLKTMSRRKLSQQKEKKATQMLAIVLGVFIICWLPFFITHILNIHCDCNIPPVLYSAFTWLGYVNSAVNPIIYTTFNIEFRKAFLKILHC
#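 D2 cells co-treated with compound plus 50 nM dopamine (EC20) for 90 min at 37 deg C to detect potentiation. Beta-arrestin recruitment was read as enzyme-fragment luminescence after 1 h at ambient temperature. Full response was set by 57 uM dopamine.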
# PINK1 modulator: A Quantitative High throughput Screen to Identify Chemical Modulators of PINK1 Expression; actives 0.2% (n = 410,000); AID 624263, 2012; Potency, µM (titrated, usually from 76.6 µM), inactives show top-dose activation (PINK1 increase), usual class: activators; PINK1 immunofluorescence, high-content cytometry, 24 h; active = well fitted activation curve with a large enough effect; inconclusive = small, poorly fitted or top-dose-only effect; inactive = flat fitted curve, though single readings scatter; cell line not stated here;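 further: potency means the concentration at half of the fitted maximal effect; % of control where 0% means no effect; nearly all actives have a fitted effect of over 65% in size; a mitochondrial uncoupler was the plate control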
#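 PINK1 protein, normally rapidly degraded, was detected by immunofluorescence after 24 hour compound treatment of a stable cell line. Titration data (5 concentrations) came from laser-scanning cytometry, with CCCP-treated wells as controls.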
# D2 agonist: Beta-Arrestin HTS for Positive Allosteric Modulators of the Human D2 Dopamine Receptor: Agonists | D(2) dopamine receptor (Homo sapiens), P14416 | DiscoveRx PathHunter D2 beta-arrestin, luminescence, 90 min; 100% = 57 uM dopamine signal | activation, % (no concentration beside the values) | actives 0.084% (n = 360,000) | AID 624465, 2012; in the data active = activation above about 40%; inconclusive = about 15% to 40%; inactive = below about 15%; further: compound concentration not given in the record; the text of the record calls up to 30% inactive
#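 DiscoveRx PathHunter D2 beta-arrestin cells (2,100/well) attached overnight, then compound-stimulated 90 min at 37 C in HBSS/10 mM HEPES/0.1% Tween-20 buffer; beta-galactosidase complementation read by luminescence after 1 h at ambient temperature. Dopamine 57 uM final (EC100) as control.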
# TRPML1 blocker: qHTS for Inhibitors of the Human Mucolipin Transient Receptor Potential 1 (TRPML1). Mucolipin-1 (Homo sapiens), Q9GZU1. TRPML1-inducible cells, Ca2+ dye fluorescence, FDSS; hits give low values; inhibition of EC80 agonist-evoked calcium signal. activity change, negative = inhibition, % (no concentration beside the values). actives 0.02% (n = 390,000). AID 624415, 2012; in the data active means activity change below about -50%; inconclusive means about -30% to -50%; inactive means above about -30%;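 further: stimulus is agonist 54-4 at its EC80 concentration; on the % scale 0 is the no-effect control and ±100 the full control effect; compound concentration not given in the record; the text of the record puts the active cut at -80%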
# Target sequence (Q9GZU1 whole entry, looked up): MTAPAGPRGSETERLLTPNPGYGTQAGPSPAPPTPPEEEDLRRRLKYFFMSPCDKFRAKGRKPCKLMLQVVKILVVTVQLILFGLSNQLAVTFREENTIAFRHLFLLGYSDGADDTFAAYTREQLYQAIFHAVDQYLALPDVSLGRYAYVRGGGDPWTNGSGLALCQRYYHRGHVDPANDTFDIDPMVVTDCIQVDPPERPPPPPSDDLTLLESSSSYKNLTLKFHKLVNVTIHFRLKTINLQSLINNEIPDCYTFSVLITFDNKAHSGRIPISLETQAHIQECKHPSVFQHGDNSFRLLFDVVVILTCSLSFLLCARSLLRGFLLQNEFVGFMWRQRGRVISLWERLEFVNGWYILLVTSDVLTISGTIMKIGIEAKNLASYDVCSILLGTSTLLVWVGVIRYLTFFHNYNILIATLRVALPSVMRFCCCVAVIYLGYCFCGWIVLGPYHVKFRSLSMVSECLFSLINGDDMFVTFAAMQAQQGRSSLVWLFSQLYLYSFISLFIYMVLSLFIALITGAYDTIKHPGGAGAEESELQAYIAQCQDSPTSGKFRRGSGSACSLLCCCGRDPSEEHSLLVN
#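 Calcium fluorescence in TRPML1-DL cells induced overnight with Tet: a 110 s read after compound pin addition, then a 110 s antagonist read after challenge with 54-4 at 4 uM final (EC80).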
# TRPML1 ag: qHTS for Agonists of the Human Mucolipin Transient Receptor Potential 1 (TRPML1). Mucolipin-1 (Homo sapiens), Q9GZU1. TRPML1-expressing cells, Ca2+ dye fluorescence, FDSS; host cell line not named in the record; reference of the full effect not given here. activation, % (test concentration not listed). actives 0.12% (n = 410,000). AID 624414, 2012; in the data active = activation above about 50%; inconclusive = about 30% to 50%; inactive = below about 30%; further: 0% is about no effect; the text of the record puts the active cut at 80%
#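 In this qHTS format, compounds were pin-transferred onto Ca8-dye-loaded TRPML1-DL cells induced with Tet overnight, and intracellular Ca2+ fluorescence was recorded kinetically for 110 s after a 10 s baseline. A subsequent 4uM final 54-4 (EC80) addition followed by a second 110 s read served as the antagonist phase.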
# Six1-Eya2 blk: qHTS Assay for Inhibitors of the Six1/Eya2 Interaction; Homeobox protein SIX1 (Homo sapiens) + Protein phosphatase EYA2 (Homo sapiens), …; AlphaScreen GST-Six1/His-Eya2 binding, biochemical; hits give low values; control for the full effect not named in the record; activity change, % (no concentration beside the values); actives 0.56% (n = 360,000); AID 651725, 2012; in the data active = activity change below about -65%; inconclusive = about -30% to -65%; inactive = above about -30%; further: on the % scale 0 is the no-effect control and ±100 the full control effect; compound concentration not given in the record
#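 Compounds are tested against tagged Six1 and Eya2 proteins bridged by glutathione donor and nickel acceptor beads; after a one-hour incubation at 37 °C without light, AlphaScreen emission is recorded.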
# Numbers without * were called inactive; ? = inconclusive; nt = no result given; & = joins results of further samples; [ ] = another dose, or the depositor's remark.
Structure	D2 PAM	PINK1 modulator	D2 agonist	TRPML1 blocker	TRPML1 ag	Six1-Eya2 blk
COc1ccccc1NS(=O)(=O)c1ccc2oc(SCC(C)=O)nc2c1	-1	-1.2%	1.1	4	1.4	3
CCn1c(SCC(=O)Nc2cc(OC)c(OC)c(OC)c2)nnc1-c1cccs1	-3	-1.4%[38.3 µM]	5.1	-8	0.9	-9
CC(SC(C)C(=O)NN=Cc1c[nH]c2ccccc12)C(=O)NN=Cc1c[nH]c2ccccc12 (configuration not stated)	-5	-1.2%	-3.0	6	0.4	-15
CCOC(=O)N1CCN(Cc2nc3cc(NC(=O)c4ccc([N+](=O)[O-])cc4)ccc3n2C(C)C)CC1	nt	3.4%	nt	41	1.5	nt
COc1ccc([N+](=O)[O-])cc1COc1ccc2c(-c3ccccc3)cc(=O)oc2c1	-12	4.9%	-3.6	9	0.0	20
CC1=C(C(=O)Nc2cccnc2)C(c2cccc(F)c2)n2nc(SCc3ccccc3F)nc2N1 (configuration not stated)	nt	0.9%	nt	-7	-0.1	nt
CSCCC(NC(=O)c1cccc(C)c1)C(=O)NCc1cccs1 (configuration not stated)	-3	2.0%	-1.0	2	0.4	-1
CCN(CCCNC(=O)CNC(=O)Cn1cnc2ccccc2c1=O)c1cccc(C)c1	-4	4.1%	-2.3	0	-1.2	-15
Cc1ccc(CNS(=O)(=O)c2ccc3c(c2)N(C)CCO3)cc1	-5	-1.0%	2.2	36	-0.6	-4
CCN(c1ccc(C)cc1)S(=O)(=O)c1nnc(NC(=O)c2cccs2)s1	nt	3.1%	nt	12	3.9	nt
Cc1cc(NC(=O)COc2coc(CN3CCN(c4ccc(F)cc4)CC3)cc2=O)no1	-7	1.5%	-1.2	-11	1.8	-5
CCN(CC)CCNCc1cc(Cl)ccc1OCc1ccccc1F	-31	-1.1%	-5.1	-5	-0.8	3
O=C(OCN1C(=O)c2ccccc2C1=O)C1CCCCC1	0	5.0%	2.0	10	0.4	10
Cn1c(SCC(=O)N2c3ccccc3CCc3ccccc32)nnc1-c1ccc(O)cc1	-9	0.2%	-1.3	50	-0.8	-15
Cc1ccc(NC(=O)COc2coc(CN3CCc4ccccc43)cc2=O)c(C)c1	-2	0.7%	2.3	3	1.2	-11
CC(=O)N1c2ccc(S(=O)(=O)NCC3CCC(C(=O)NCc4ccccc4)CC3)cc2CC1C (configuration not stated)	-8	1.5%	2.8	2	1.0	0
O=C(/C=C/c1ccc(F)cc1)NC(=S)N1CCN(Cc2ccccc2)CC1	-9	-2.0%	-3.9	21	0.0	-17
O=C(NCc1ccc(Cl)cc1)C1CCN(c2nnc(N3CCCC3=O)s2)CC1	-1	0.6%	0.2	0	0.0	5
O=C(Nc1ccc(N2CCOCC2)cc1)Nc1cnsn1	7	-2.0%	2.2	1	-0.1	-3
COc1ccc(-c2c(C)oc3c(CN4CCN(CCO)CC4)c(O)ccc3c2=O)cc1OC	-22	-0.3%	-1.1	-21	-0.7	4
O=C(c1cc2cc(F)ccc2[nH]1)N1CCN(C(=O)c2ccco2)CC1	-12	0.3%	-0.3	11	-0.1	-10
Cc1oc(-c2cccs2)nc1CNC[C@H]1O[C@@H](n2cnc3c(N)ncnc32)[C@H](O)[C@@H]1O	-4	0.2%	-0.1	7	-0.2	11
Cc1ccc(S(=O)(=O)N2CCCC2c2nc3ccccc3s2)cc1 (configuration not stated)	-7	-5.0%	-2.3	39	3.6	6
CCOCCCNC(=S)NC1CC2CCC(C1)N2Cc1ccccc1 (configuration not stated)	-25	1.4%	-3.1	0	-0.5	5
O=C(c1ccccc1Cl)N1CCC(O)(c2cccnc2)CC1	-3	0.2%	1.9	10	2.5	11
COc1ccc(NC(=O)Cn2c(=O)sc3ccccc32)c(OC)c1	-4	0.5%	0.2	-12	1.4	-2
C[C@H](NC(=O)c1nc[nH]c1C(=O)NC1CCNCC1)C(=O)OC(C)(C)C	-7	1.1%	-2.0	9	0.8	0
CC(CN1CCCCC1)OC(=O)c1ccco1 (configuration not stated)	-5	1.5%	-3.1	-13	0.9	10
CC1=CC(=O)OC1Cc1ccncc1 (configuration not stated)	10	-0.4%	-1.1	7	-0.6	7
O=C(Oc1ccc(C(=S)N2CCCCC2)cc1)c1ccccc1F	-6	0.1%	-0.5	0	-0.3	-4
Cc1ccc(S(=O)(=O)N(C)S(=O)(=O)c2ccc(C)cc2)cc1	-67	-0.2%	-3.7	-11	-0.2	20
Cc1ccc(C(=O)N=c2sccn2C)o1	-1	0.9%	0.7	-12	0.1	2
CCN(CC)CCNC(=O)c1cc(-c2ccc(Br)s2)nc2ccccc12	-18	-1.2%&-0.5%	1.4	15&18	1.5&1.7	-2
Cc1cc(C)cc(NC(=O)C(=O)NCC(c2cccnc2)N2CCc3ccccc32)c1 (configuration not stated)	nt	1.1%	nt	32	3.8	nt
CCC(=O)N(Cc1ccco1)C1CC(=O)N(c2ccccc2)C1=O (configuration not stated)	-11	-2.3%	-1.1	-25	0.0	6
O=C(c1ccc(Cl)c(F)c1F)N1CCOCC1	-14	10%[38.3 µM]	-1.3	-5	0.1	2
CCn1c(SCC(=O)Nc2nc(C)cs2)nnc1-c1ccoc1C	16	-1.8%	-4.9	-21	-0.3	-1
COc1ccc(CNC(=O)CN2N=C(c3ccccc3)CCC2=O)c(OC)c1	nt	1.3%	nt	1	1.9	nt
CCC/C(O)=N\S(=O)(=O)c1ccc(N=NN(C)C)cc1	5	-1.1%	-2.4	-10	-0.3	-1
CC(C)C[C@@H](CNCC(=O)[C@H](C)NC(=O)c1[nH]cnc1C(=O)N[C@@H](C)CN)NC(=O)c1nc[nH]c1C(=O)N[C@@H](CC(=O)O)C(=O)O	-5	0.2%	-1.2	13	-0.7	-5
COc1ccc(S(=O)(=O)N(C)CC(=O)NCc2cccnc2)cc1	-16	0.0%	-0.3	-4	-0.1	7
CC(C)Cn1c(C(C)C)nc([N+](=O)[O-])c1S(=O)(=O)c1ccc(F)cc1	-2	-0.6%[38.3 µM]	-2.3	-6	-0.2	2
Cc1ccc(NC(=O)C2CCN(S(=O)(=O)c3ccc4c(c3)OCCO4)CC2)c(O)c1	0	-0.6%	2.3	3	-0.3	-16
COc1ccc(S(=O)(=O)N2CCC(C(=O)NC3(C)CCS(=O)(=O)C3)CC2)cc1OC (configuration not stated)	-1	1.9%	-2.6	10	0.4	-1
O=C(C1CCCN(c2ncccn2)C1)N1CCc2ccccc21 (configuration not stated)	-8	?	1.0	7	1.5	1
CCC(C(=O)NC1CCCC1)N(C(=O)c1snc(C(N)=O)c1N)c1ccc2c(c1)OCCO2 (configuration not stated)	-1	17%[38.3 µM]	2.1	11	0.9	1
COc1cc(Cn2c(=O)sc3ccccc32)ccc1OC(C)C	nt	0.5%	nt	-9	-0.5	nt
Cc1ccc(O)c(C2=NNC(c3ccc(Cl)cc3)C2)c1 (configuration not stated)	-11	11%	-1.2	-22	-0.1	0
COc1ccccc1OCC(=O)Nc1ccccc1C(=O)N1CCCC1	-1	-2.5%	-2.1	-2	-0.1	5
Cc1ccc(NC2=NC(=S)N(CC#N)C23CCCCC3)cc1	-3	0.9%	-2.9	-9	0.3	0
COc1ccc(/C=N/NC(=O)C(C)N(c2ccc(OC)cc2)S(C)(=O)=O)cc1 (configuration not stated)	-9	-0.4%	-3.1	30	-0.1	1
COc1cccc(NC(=O)CSc2nc3ccccc3cc2Cc2ccccc2)c1	-1	0.4%[38.3 µM]	0.5	48	2.9	1
CCOc1ccc(NC2OC(CO)C(O)C(O)C2O)c([N+](=O)[O-])c1 (configuration not stated)	-2	0.2%	-4.1	-4	0.0	0
N#Cc1ccsc1NC(=O)CSc1nnnn1-c1ccc(O)cc1	-7	1.4%	-0.5	12	0.7	-18
COc1cc(S(=O)(=O)NC2CCCCC2C)ccc1-n1cnnn1 (configuration not stated)	-3	1.4%	0.1	-15	-0.1	-3
CN1CCN(c2ccccc2NC(=O)COc2ccccc2)CC1	-12	-3.6%[38.3 µM]	0.2	11	0.4	3
Cc1cc(CNC(=O)CC2C(=O)NCCN2Cc2ccccc2)nn1C (configuration not stated)	-1	-1.1%	-2.5	24	-0.4	3
COc1ccccc1CN1CCNC(=O)C1=O	nt	0.8%	nt	19	-0.8	nt
Cc1ccc(NC(=O)c2sc3nc[nH]c(=O)c3c2C)c(C)c1	-1	-1.1%	-1.2	11	2.9	-5
Cc1[nH]c(N=Nc2ccccc2)nc1N=Nc1ccccc1	-18	0.7%	-4.6	9	0.6	?

# Continuation:
Structure	D2 PAM	PINK1 modulator	D2 agonist	TRPML1 blocker	TRPML1 ag	Six1-Eya2 blk
CCC1=NN(C(=O)c2ccc(Br)cc2)C(O)(c2ccc(C)cc2)C1 (configuration not stated)	-26	13%	-8.3	0	2.9	-6
CSc1nc2nccc(-c3ccc(-c4ccccc4)cc3)n2n1	-4	4.9%	-3.0	31	2.2	?
Cc1nc2nc(NCc3ccc(Br)cc3)[nH]n2c(=O)c1Cc1ccccc1	nt	-0.7%	nt	41	-0.5	nt
Cc1cc(C)nc(/N=C(\N)Nc2ccc(SC(F)F)cc2)n1	-17	4.2%	0.9	-13	54*	0
CN(C)CCCNC(=O)C1CCNCC1	3	-2.4%	-1.6	18	0.4	2
COc1ccc(C2c3ccsc3CCN2C(=O)C(C)(C)C)cc1 (configuration not stated)	-6	0.0%	-2.3	16	2.2	3
N#Cc1ccc(-c2ccccc2)nc1SCCN1CCOCC1	-3	-2.1%	-3.7	-1	0.3	-6
Fc1ccc(-c2nnn(Cc3ccccc3Cl)n2)cc1	-6	17%	-1.4	9	-0.8	40
CC(=O)N1CCc2cc(C(=O)CN3CCN(c4ccccc4F)CC3)ccc21	-9	2.8%	-3.6	4	-0.3	2
Cc1ccc(CN(Cc2ccco2)C(=O)c2ccccc2Br)o1	nt	0.1%	nt	29	3.7	nt

# 2 of the compounds above, with values under each structure:
# Every second line gives: D2 PAM, PINK1 modulator, D2 agonist, TRPML1 blocker, TRPML1 ag, Six1-Eya2 blk
- Cc1nc2nc(NCc3ccc(Br)cc3)[nH]n2c(=O)c1Cc1ccccc1
  nt, -0.7%, nt, 41, -0.5, nt
- Cc1ccc(CN(Cc2ccco2)C(=O)c2ccccc2Br)o1
  nt, 0.1%, nt, 29, 3.7, nt
